From PubChem
TAR Tat displ: HIV-1 TAR-Tat binding disruption | AID 1259389 | hit rate 0.6% among 100,000 | z-score (test concentration not listed) | HIV-1 TAR RNA, Tat peptide displacement FRET; stronger effect = higher value;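 note: score is relative to mean and SD of negative controls; some compounds called inactive have numbers as strong as hits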
CDC25B CDK2 inh: human CDC25B-CDK2/CyclinA binding inhibition; P30305+P24941; HTRF CDC25B-CDK2/CyclinA binding, anti-His/anti-Flag; stronger effect = higher value; z-score (test concentration not listed); hit rate 0.72% among 94,000;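 note: score is relative to mean and SD of negative controls; strong numbers were not always called active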
Starred values were filed as active, the others as inactive; x = no result given.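 Rule for the calls: active = z-score from 3 up in half or more of its runs; inactive = the rest.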 Hits appear at their usual frequency; any-hit rate near 0.97%.

Structure	TAR Tat displ	CDC25B CDK2 inh
CCN1C(=O)C(O)(CC(=O)c2cccc(Br)c2)c2ccccc21 (stereo not drawn)	x	-0.38
COc1ccc(-c2nc3ccccc3o2)cc1NC(=O)c1ccc([N+](=O)[O-])cc1Cl	x	-0.47
CSc1cccc(NC(=O)C2CCn3c(nc4ccccc43)C2)c1 (stereo not drawn)	0.9	x
COc1cccc(C2c3c(-c4ccccc4O)n[nH]c3C(=O)N2CCO)c1 (stereo not drawn)	-0.44	-2.01
O=C(NCCCN1CCOCC1)C1(c2cccs2)CCOCC1	2.25	x
Cc1ccc(CNC(=O)CNC(=O)C2(C)CN(S(C)(=O)=O)CC(=O)N2C)o1 (stereo not drawn)	2.29	x
Cc1ccn2c(=O)cc(COc3ccccc3NS(=O)(=O)c3ccccc3)nc2c1	-0.58	x
CN1CCN(C(=O)c2ccccc2NC(=O)c2ccc(Cl)cc2Cl)CC1	x	-3.1
COc1ccc(C2CC(=O)C3=C(C2)NC(=O)CC3c2ccc(F)cc2)cc1OC (stereo not drawn)	-1.28	-1.4
Cn1c(C2=C(O)CN(c3ccc(Oc4ccccc4)cc3)C2=N)nc2ccccc21	1.39	-0.99
COC(=O)c1cc(OC)c(OC)c(OC)c1NC(=O)c1cccnc1Oc1ccccc1	x	0.43
CC(=O)N1CCN(c2ccc(C(F)(F)F)cc2[N+](=O)[O-])CC1	x	-0.92
COc1ccc2oc(=O)c(-c3csc(N/N=C/c4ccco4)n3)cc2c1	x	-1.12
COc1cc(C2C(C(=O)OC3CCCCC3)=C(C)NC3=C2C(=O)CCC3)cc(Br)c1O (stereo not drawn)	0.29	0.1
COc1ccc(-n2ccnc(NCc3ccco3)c2=O)cc1	0.57	x
CCOc1ccc2nc(NC(=O)c3sc(C)nc3C)sc2c1	1.68	-0.32
O=C(NC1CCCCC1)c1ccc2c(c1)nc1n2CCCCC1	1.25	x
COc1ccc(Cl)cc1NC(=O)c1cnc2scc(C)n2c1=O	1.76	-4.29
Cc1ccn2c(=O)c(C(=O)NCCN(C)C)c(O)nc2c1	0.51	-0.23
OC(CN1CCN(c2cccnc2)CC1)Cn1nnnc1-c1ccccc1 (stereo not drawn)	2.18	-1.02
CC1(C)CC(=NOC(=O)N2c3ccccc3C=Cc3ccccc32)CC(C)(C)N1	x	-1.08
COc1ccc(N2CCN(c3c(-c4ccc5c(c4)OCC(=O)N5)c(=O)c3=O)CC2)cc1	1.23	x
CCCCn1c(CN2CCC(C)CC2)nc2c1c(=O)n(C)c(=O)n2C	x	-2.06
Cc1c(/C=C/C(=O)Nc2nccs2)sc2ccccc12	x	-1.34
COCCCN1CCn2c(nc3cc(NS(C)(=O)=O)ccc32)C1	2.45	-1.79
CC(C)CCn1c(C2CC(=O)N(c3ccccc3)C2)nc2ccccc21 (stereo not drawn)	-0.22	-1.11
CC(C)CNC(=O)c1ccc2c(=O)n(C(C)C)c3n[nH]c(=O)n3c2c1	0.45	1.51
COc1cc(NS(=O)(=O)c2cc(-c3cc(C)no3)ccc2C)cc(OC)c1	0.37	x
Cc1c(C)n(C(=O)CSc2ccccn2)c2ccccc12	0.31	12.8
Cc1ccc(S(=O)(=O)c2cnc3ccccc3c2N2CCN(C)CC2)cc1	1.15	-1.28

Laid out differently: results already given.
SMILES: Cc1c(/C=C/C(=O)Nc2nccs2)sc2ccccc12
  TAR Tat displ: x | CDC25B CDK2 inh: -1.34
SMILES: COCCCN1CCn2c(nc3cc(NS(C)(=O)=O)ccc32)C1
  TAR Tat displ: 2.45 | CDC25B CDK2 inh: -1.79
SMILES: CC(C)CCn1c(C2CC(=O)N(c3ccccc3)C2)nc2ccccc21 (stereo not drawn)
  TAR Tat displ: -0.22 | CDC25B CDK2 inh: -1.11

Further results follow:
Structure	TAR Tat displ	CDC25B CDK2 inh
Fc1ccc(CN2CCc3nc(Nc4ccccc4F)ncc3C2)cc1F	1.71	x
N=c1ccn2c(n1)O[C@@H]1C2O[C@H](CO)[C@H]1O (stereo partly drawn)	0.79	x
COc1ccc(Cl)cc1NC(=O)N1CCC2(CC1)Nc1ccccc1-n1cccc12	0.06	x
N/C(=N\O)C1CSc2ccccc2C1=O (stereo not drawn)	x	-0.23
COc1ccccc1-c1ncnn1-c1sc2c(c1C#N)CCCCC2	0.47	1.5
O=C(C1=C(Nc2ccc(N3CCOCC3)cc2)c2ccccc2S1(=O)=O)N1CCOCC1	0.67	x
CCOc1cc(C)c(S(=O)(=O)NCc2ccccn2)cc1C	-0.12	-1.44
CCOC(=O)C1=C(C(F)(F)F)Nc2ncnn2C1c1ccc(OC)cc1 (stereo not drawn)	1.6	x
Cc1ccc2oc(=O)c3cnn(CC(=O)N(C(C)C)C4CCCCC4)c3c2c1	1.49	-1.43
CCOc1cc(C2NC(C(=O)O)CS2)ccc1OCc1ccc(F)cc1 (stereo not drawn)	1.91	0.85
Cn1c(C(=O)NCCc2ccsc2)cc2c(=O)n(C)c3ccccc3c21	1.16	-2.12
O=C(C1CCCN(c2ncnc3c2nc2n3CCCCC2)C1)N1CCOCC1 (stereo not drawn)	-0.76	x
CCOc1ccccc1Nc1ncnc2onc(C)c12	0.63	x
NS(=O)(=O)c1ccc(NNC(=O)c2nccnc2C(=O)O)cc1	x	-0.94
CC(C)n1c(N2CCCC2)nc2c1c(=O)[nH]c(=O)n2C	0.7	0.5
COc1cc(-c2coc3cc(OCc4ccccc4)c(OC)c(O)c3c2=O)cc(O)c1OC	1.2	x
CSc1ccc(CCNC(=O)c2cccc3c2C(=O)N(CC2CCCO2)C3)cc1 (stereo not drawn)	-0.8	-0.38
O=C1c2[nH]nc(-c3ccccc3O)c2C(c2ccccc2F)N1CCCO (stereo not drawn)	2.89	-2.43
COc1ccc(N2C(=O)c3c(C)nc4ccccc4c3C2=O)cn1	-3.83	-0.95
O=C(Nc1ccc(F)c(Cl)c1)c1ccco1	1.76	x
CCOC(=O)c1oc2ccc(Br)cc2c1NC(C)=O	1.27	-0.46
COc1ccc(OCCSc2nc3ccccc3n2CC(=O)O)cc1	0.65	0.6
CCN1CNC(=S)N(c2ccc(F)c(Cl)c2)C1	x	-1.09
Cn1ncc2c(N3CCN(c4ccccc4F)CC3)ncnc21	0.57	x
CN1C(=O)c2ccccc2Sc2ccc(NC(=O)NCC3CCCO3)cc21 (stereo not drawn)	-0.01	-1.94
Cc1cc(Nc2cccc(O)c2)ncn1	0.21	0.98
CSc1ccccc1NC(=O)NCc1ccccc1F	x	-0.73
COc1ccccc1C1CC(=O)c2c(ccc3ccccc23)N1 (stereo not drawn)	-0.17	-1.19
CCCN(Cc1cc2cccc(C)c2[nH]c1=O)S(=O)(=O)c1ccc(C)cc1	1.46	-3.27
O=C1CC(c2ccccc2)Cc2nc(N3CCOCC3)ncc21 (stereo not drawn)	-1.38	-1.32
O=C(CSc1cn(CC(=O)N2CCCC2)c2ccccc12)NCc1ccc2c(c1)OCO2	-2.34	x
Cc1cc(C)cc(NC(=O)C2CC3CCCN3C23C(=O)Nc2ccccc23)c1 (stereo not drawn)	1.46	x
Cc1ccc2oc(-c3cc(N)ccc3O)nc2c1	1.54	-1.19
O=[N+]([O-])c1cc(Cl)ccc1N1CCCCC1	x	0.35
O=C(CSc1nnc2ccc3ccccc3n12)Nc1ccccc1F	x	-1.03
c1ccc(COc2ccc(Oc3nc(N4CCOCC4)nc(N4CCOCC4)n3)nn2)cc1	x	-0.39
CCCCC(=O)NCCc1cc2cc(C)c(C)cc2[nH]c1=O	x	-1.57
CC1CSc2ccc(S(=O)(=O)N(Cc3cccs3)C(C)C)cc2NC1=O (stereo not drawn)	0.6	x
CCOc1ccccc1-c1nnc(-c2ccccc2Cl)o1	0.63	0.63
CCc1cccc(Nc2nc3ccccc3n3c(C)nnc23)c1	1.92	-2.06
O=C(Nc1cccc(F)c1C(=O)NCCc1ccncc1)c1cccc(C(F)(F)F)c1	x	-1.59
N#CC1C(=O)NC(N2CCN(Cc3ccccc3)CC2)=NC12CCCCC2 (stereo not drawn)	1.61	0.89
Cc1noc(COc2ccccc2)c1C(=O)O	x	-0.39
CCOC(=O)c1c(S(=O)(=O)NC2CC2)c(C)n(C)c1C	2.47	x
CCc1onc(C)c1C1CCCN1Cc1ccc(OC)c(Br)c1 (stereo not drawn)	1.57	x

Entries of single compounds, looked up by structure. Order of values: TAR Tat displ | CDC25B CDK2 inh
`CCOc1ccccc1-c1nnc(-c2ccccc2Cl)o1` is listed with 0.63 | 0.63
`Cc1noc(COc2ccccc2)c1C(=O)O` is listed with x | -0.39
`CCc1cccc(Nc2nc3ccccc3n3c(C)nnc23)c1` is listed with 1.92 | -2.06
`Cc1ccc2oc(-c3cc(N)ccc3O)nc2c1` is listed with 1.54 | -1.19
`O=[N+]([O-])c1cc(Cl)ccc1N1CCCCC1` is listed with x | 0.35

Continuation.
Structure	TAR Tat displ	CDC25B CDK2 inh
CCN(CC)c1ccc2nnc(CCC(=O)NCC3CCCO3)n2n1 (stereo not drawn)	0.86	x
CCCc1nc(SCc2cc(=O)n3nc(CC(C)C)sc3n2)n[nH]1	-0.21	x
Cc1nn2c3ccccc3n(C)c2c1C(N)=O	-3.78	-0.04
Cc1cn2c(=O)c(S(=O)(=O)N(C)C3CCCCC3)c(C)nc2s1	-1.07	x
Cn1c(=O)c2c(nc(NCC3CCCO3)n2C)n(C)c1=O (stereo not drawn)	-1.06	-0.56
CC(C)c1ccc(C2c3c(-c4ccccc4O)n[nH]c3C(=O)N2Cc2cccnc2)cc1 (stereo not drawn)	0.79	0.03
CC(=O)Nc1ccccc1C(=O)N1CCN(c2ccccc2)CC1	x	-2.43
O=c1c2ccccc2n(Cc2cc(=O)n3ccccc3n2)c(=O)n1-c1cccc(F)c1	0.54	-1.87
CCC(C)N=C1NS(=O)(=O)C(c2ccc(F)cc2)=C1C (stereo not drawn)	0.17	x
Cc1[nH]c(=O)[nH]c(=O)c1S(=O)(=O)Nc1ccc(F)cc1Cl	0.8	x
CC1=Nn2c(nc3sc(C)c(C)c3c2=O)SC1	x	-0.83
Cc1cnc(C(=O)NCCc2ccc(S(=O)(=O)NC(=O)NC3CCCCC3)cc2)cn1	x	-1.08
Cc1cc(C)n(C(=O)c2cc(S(=O)(=O)N3CCN(c4ccc(F)cc4)CC3)[nH]n2)n1	3.07	-0.36
CCOc1ccccc1Nc1nc(SC)nc2c1CCC2	0.53	-0.31
O=C1N(O)C2(C=CCCC2)/C(=N/O)C12CCCCC2 (stereo not drawn)	x	-2.12
O=C1N2CN(CCO)CN3C(=O)N4CN(CCO)CN1C4C23 (stereo not drawn)	2.27	-0.43
O=C(O)Cc1c[nH]c2ccc(O)cc12	x	-1.26
CC1CCC(NC(=O)C2(C)Cn3c(cc4occc43)C(=O)N2CC2CCCO2)CC1 (stereo not drawn)	3.01	x
N#CCC(=O)NNCc1cc(-c2ccccc2)n(-c2ccccc2)c1-c1ccccc1	x	-3
CC1CCCN(c2ncnc3c2nnn3C)C1 (stereo not drawn)	0.7	x
COc1ccc2cc([C@H](C)CO)ccc2c1	1.83	x
CS(=O)(=O)N(CC(O)Cn1c2ccccc2c2ccccc21)c1ccccc1 (stereo not drawn)	x	-0.44
CCOc1ccc(S(=O)(=O)Nc2ccc3c(c2)N(S(C)(=O)=O)CCC3)cc1	-0.5	x
CCCCN(Cc1ccco1)S(=O)(=O)c1ccc2c(c1)NC(=O)C(C)CS2 (stereo not drawn)	-0.11	x
COc1cc(N2CCn3c(nc4cc(Cl)ccc43)C2)ccc1NS(C)(=O)=O	-1.82	-0.2
COc1ccccc1NC(=O)NCCN1CCN(Cc2ccccc2)CC1	x	-2.21
O=C1CC(c2ccc3c(c2)OCO3)c2c(n[nH]c2-c2ccccc2)N1 (stereo not drawn)	0.48	-0.37
NC(=O)c1nc(-c2ccc(Cl)cc2)nc2c1[nH]c(=O)n2-c1ccc(Cl)cc1	1.09	x
CC1CC(C)CN(CC2CCN(C(=O)NCC3CCCO3)CC2)C1 (stereo not drawn)	0.65	x
Cn1c(=O)[nH]c(=O)c2c1nc(N1CCOCC1)n2CCCc1ccccc1	0.77	-0.93
O=C(C1CCN(S(=O)(=O)c2cccnc2)CC1)N1CCCC1	1.94	-2.62
CCOC(=O)N/N=C(\C)C1(OC)C(O)CC2C3CC=C4CC(O)CCC4(C)C3CCC21C (stereo not drawn)	x	-1.8
Cc1sc2c(c1C)CSC(C(=O)NCc1ccco1)=C2	3.56*	x
Nc1nc(Nc2ccc(F)cc2)sc1C(=O)c1ccccc1	-0.4	4.01
O=C(c1ccc(CNc2c(NC3CCCC3)c(=O)c2=O)cc1)N1CCn2c1nc1ccccc12	x	-1.42
COc1cc(/C=C2\SC(N3CCN(C4=NC(=O)/C(=C\c5ccc(O)c(OC)c5)S4)CC3)=NC2=O)ccc1O	x	-1.66
COc1ccc(OC(=O)c2cc(-c3cccs3)on2)cc1	1.6	-0.21
CC1CN(C(=O)CCC(=O)NC2CCCc3ccccc32)c2ccccc2S1 (stereo not drawn)	1.17	x
COc1cc(SCc2ccccc2)c(C(=O)O)cc1OC	x	-2.16
CCOC(=O)N1CCN(S(=O)(=O)c2ccc3c4c2CC(=O)N4CC(C)S3)CC1 (stereo not drawn)	0.01	x
CCCN(CCC)c1nnc(NC(=O)Nc2ccc(F)cc2)s1	1.2	-1.36
O=C(NC1CCCCC1)C1CCCN(c2nnc(N3CCCC3=O)s2)C1 (stereo not drawn)	3.31	-1.78
